Screening data deposited in PubChem by PCMD.
Calb biofilm kill = clotrimazole potentiators killing C. albicans biofilm, primary screen, 4-compound mixtures; AID 1242, 2008; 120,000 tested, 0.02% active; C. albicans biofilm persisters + clotrimazole, fluorescence viability; primary screen in compound mixtures of four per well; inhibition, % at 7.6 µM;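 active = inhibition above 30.3% in the primary screen of four-compound pools, then above 30% when the compound was retested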;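 note: compounds exposed to preformed 24 h biofilms for 48 h; the number belongs to the whole pool; some results filed as inactive read as strong as hits; inactives centre near 12; 0% = biofilm with clotrimazole alone and 100% = kill control; retested singly at about 60 µM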
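Incubation: 24 h biofilm formation, then 48 h compound exposure, 37 °C | Material: C. albicans biofilms | Buffer or medium: RPMI/MOPS medium, pH 7.0 | Measured by: 2-h Alamar Blue fluorescence, 535/590 nm excitation/emission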
* = called active by the depositor.

No.	molecule	Calb biofilm kill
1	COc1ccc(C(C)=O)cc1CSc1nnc(Nc2ccccc2)s1	11
2	O=C(Cc1cccc(C(F)(F)F)c1)NCc1ccc(Cl)cc1Cl	10
3	Cc1cnc(C(=O)NCCc2ccc(S(=O)(=O)NC(=O)NC3CCCCC3)cc2)cn1	14
4	CCC1CCc2c(sc(N)c2C(N)=O)C1 (centres undefined)	19
5	O=C(NNS(=O)(=O)c1ccccc1F)c1cccc(S(=O)(=O)N2CCOCC2)c1	2
6	S=C(Nc1ccccc1)Nc1nc2ccccc2n1CCOc1ccc(Cl)cc1	10
7	CCOc1ccc(-c2cc(N3C(=O)Nc4ccccc4N3O)n[nH]2)cc1	17
8	CCOC(=O)c1ccc(NC(=S)N(CCCN(CC)CC)Cc2ccco2)cc1	20
9	COc1ccc(NC(=O)CSc2nnc3n2CCCCC3)cc1	11
10	COCCN(Cc1cc2cc(C)ccc2n2nnnc12)C(=S)Nc1cccc(C)c1	18
11	CNCCC1Sc2ccccc2Oc2ccccc21 (centres undefined)	-1
12	N#Cc1cccc(NC(=O)C2SC(=Nc3ccccc3)C(C(=O)N3CCOCC3)=C2N)c1 (centres undefined)	9
13	Cc1ccc(NC(Cc2cc(C)no2)c2ccccc2)cc1 (centres undefined)	-14
14	CCCOc1ccc(S(=O)(=O)NNC(=O)c2cc3ccccc3o2)cc1	17
15	CCOC(=O)/C(C#N)=C1\SS/C(=C(/C#N)C(=O)OCC)S1	18
16	C=CCN1CCc2nc(N)sc2CC1	1
17	COCC(=O)N1CCC(Oc2ccc(C(=O)NCCc3ccncc3)cc2)CC1	24
18	S=c1[nH]nc(-c2ccc(Cl)cc2Cl)n1-c1ccc2c(c1)OCCO2	17
19	O=S(=O)(c1ccc(F)cc1)N1CCN(c2ccccn2)CC1	5
20	C/C(=N\NC(=S)Nc1ccccc1)C1Cc2ccccc2C(=O)O1 (centres undefined)	12
21	Cn1nc(C(=O)Oc2cc(=O)n(C)c3ccccc23)c2ccccc2c1=O	16
22	O=C(COC(=O)/C=C/c1ccc(Cl)cc1)Nc1ccccc1	17
23	CCCS(=O)(=O)C/C(N)=N/OC(=O)c1ccc(Cl)cc1	16
24	CC(C)Oc1ccc(C(=O)Nc2ccc(N3CCCCC3)cc2)cc1	7
25	Cc1ccc2sc(N(CCCN(C)C)C(=O)c3ccc(Br)s3)nc2c1C	-14
26	COc1ccc(C(=O)C2CCCN(Cc3ccc(C#CCCO)cc3)C2)c(OC)c1 (centres undefined)	20
27	CCCCN1C(=O)/C(=C/C=C2/CC(C)(C)CN2C)SC1=S	11
28	COc1ccc(C2CC2C(C)=O)cc1 (centres undefined)	1
29	CNC(=O)c1c(NC(=O)c2cc(-c3cc(C)c(C)cc3O)n[nH]2)sc2c1CCCC2	14
30	CC(O)CNc1nc2ccccc2n1CC(=O)NCC(F)(F)F (centres undefined)	2
31	Cc1cc(C)c2c(NC(=S)Nc3ccccc3)n[nH]c2n1	11
32	NC(=O)CC(NC(=O)c1ccccc1)c1ccc(NCC2CC2)c([N+](=O)[O-])c1 (centres undefined)	13
33	CCC(=O)Nc1cccc(-n2nnnc2SCC(=O)c2ccc(C)c(C)c2)c1	-7
34	O=C(COc1ccccc1C(=O)NCc1ccccn1)Nc1ccc(Br)cc1	11
35	CC1=CC(C2CC(=O)N(c3ccccc3C)C2=O)CC2C(=O)N(c3ccccc3C)C(=O)C12 (centres undefined)	4
36	COc1ccc(CNC(=S)NCc2ccc(OC(C)C)cc2)cc1	8
37	O=C(Nc1nnc(C2CC2)s1)C1CC(=O)N(c2ccc3c(c2)OCCO3)C1 (centres undefined)	12
38	O=C(CCC1CCCN(C(=O)Cn2cnnn2)C1)NCc1ccc(F)c(F)c1 (centres undefined)	2
39	Cc1nc2ccc(NC(=O)c3ccc(N4C(=O)CCC4=O)cc3)cc2s1	11
40	Cc1nc(N2CCOCC2)c2c3c(sc2n1)CCC3	8
41	Cc1cc(-c2nnnn2-c2ccc(F)cc2)no1	22
42	Clc1ccc(CN2CCN(c3ccccc3)CC2)cn1	3
43	O=C1[C@@H]2[C@H]3CC[C@H](C3)[C@@H]2C(=O)N1O	14
44	CCOc1ccc(C(=O)Nc2cccc(C(=O)O)c2)cc1Cl	17
45	C/C=N/NC(=O)c1cc(Br)ccc1O	18
46	COc1ccc(/C=N/NC(=O)c2cccc(O)c2)cc1Cn1nc(C)c([N+](=O)[O-])c1C	8
47	COc1ccc(S(=O)(=O)NCCc2nnc3ccc(SCC(=O)Nc4nc(C)cs4)nn23)cc1	13
48	NC(=S)N/N=C/c1coc2c(ccc3ccccc32)c1=O	-1
49	O=C(Cc1c[nH]c2ccccc12)NC1(C(=O)NC2CCCC2)CCCCC1	8
50	COC(=O)N(NC(=O)C(O)(c1ccccc1)c1ccccc1)c1ccc(C)cc1	18
51	COc1ccc(-n2nc(C(=O)Nc3cc(OC)c(OC)c(OC)c3)c3ccccc3c2=O)c(OC)c1	6
52	COc1ccc(CNC(=O)CSc2nnnn2C)cc1OC	15
53	CCOC(=O)C(NC(=O)c1ccccc1)(OCc1ccccc1)C(F)(F)F (centres undefined)	7
54	CCS(=O)(=O)c1ccc(N)cc1	15
55	CC(C)CNC(=O)COc1cccc(C(=O)NCc2ccccc2)c1	12
56	Cc1cc(C(=O)CSc2ncn[nH]2)c(C)n1-c1cccc(S(=O)(=O)N2CCOCC2)c1	7
57	COc1cccc([C@@H]2Oc3ccc(OC)cc3C(=O)[C@H]2OC(=O)N[C@H](C)C2CCCCC2)c1	8
58	Cc1cc(C)c(NC(=O)NC(=O)C(Cl)(Cl)Cl)c(C)c1	-31
59	Clc1cc(Cl)cc(Nc2ncnc(-n3cccc3)n2)c1	8
60	COc1ccc(N2C(=O)CC(N3CCN(S(=O)(=O)c4cc(C)ccc4C)CC3)C2=O)cc1 (centres undefined)	19

New compounds follow
No.	molecule	Calb biofilm kill
61	O=C(Cn1nnc(-c2ccc(NC(=O)c3ccccc3F)cc2)n1)NCc1ccc(F)cc1	13
62	Cc1c(Cl)cccc1NC(=O)COC(=O)CN1C(=O)NC(C)(C)C1=O	9
63	O=S(=O)(Nc1cc(C(F)(F)F)ccc1N1CCOCC1)c1ccc2ccccc2c1	16
64	CC1CC(CCC(=O)NC(=S)Nc2ccc(Cl)cn2)C(=O)O1 (centres undefined)	2
65	CC(OC(=O)c1ccncc1)C(=O)Nc1ccc([N+](=O)[O-])cc1Cl (centres undefined)	16
66	CCOc1ccc(C2/C(=C(\O)c3cccc(OC)c3)C(=O)C(=O)N2c2ccccn2)cc1OC (centres undefined)	24
67	Cc1ccc2oc(/N=C(\N)NC(=O)C3CC3)nc2c1	10
68	C(=C\c1nccc2c1[nH]c1ccccc12)/c1ccccc1	21
69	Cc1c(NC(=O)COC(=O)C23CC4CC(CC(O)(C4)C2)C3)c(=O)n(-c2ccccc2)n1C	3
70	CCCCC(CC)C1OCC(CN2CCCCC2)O1 (centres undefined)	15
71	CC(C)c1ccc(S(=O)(=O)c2nnn3c2nc(N2CCCCC2)c2ccccc23)cc1	7
72	COc1ccccc1NC(C)C(=O)N/N=C/c1cccs1 (centres undefined)	17
73	COc1cc2c(cc1OC)CN(C(=S)Nc1c(C)cccc1C)CC2	5
74	Cc1nn(C(=O)CNS(=O)(=O)c2ccccc2)c(C)c1Sc1ccc(Cl)cc1	12
75	CC(C)CNC(=O)c1cnn2c(C(F)(F)F)cc(C(F)(F)F)nc12	9
76	O=C(CO/N=C/c1ccccc1OC(F)F)NCc1cccs1	21
77	COC(=O)c1c(NC(=O)COC(=O)CCc2ccc(S(=O)(=O)N3CCOCC3)cc2)sc2c1CCC2	20
78	CCCN1C(=O)/C(=C/c2nc3ccccc3c(=O)[nH]2)c2cc(C)ccc21	10
79	Cc1cccc(NC(=O)NCC(c2ccco2)N2CCCCC2)c1 (centres undefined)	8
80	N#CC1=C(N)Oc2n[nH]c(-c3cccnc3)c2C1c1cc(F)ccc1F (centres undefined)	12
81	CCOC(=O)C1CCCN(C(=O)CSc2ccc(Br)cc2)C1 (centres undefined)	16
82	CCNc1nc(NCC)nc(SCC(C)=O)n1	14
83	Cc1ccc(C(=O)Cn2cc([N+](=O)[O-])nc2C)cc1	24
84	O=C(C1=C[C@@H](c2coc3ccccc3c2=O)C[C@@H](OCc2ccc(CO)cc2)O1)N1CCN(Cc2ccc3c(c2)OCO3)CC1	16
85	CC(C)c1ccc(-c2nnn(CCC#N)n2)cc1	7
86	CCOC(=O)C1C(c2ccc(O)c(OC)c2)NC(=S)NC1(O)C(F)(F)F (centres undefined)	12
87	O=C(CSc1ccccc1)N[C@@H](Cc1ccccc1)C(=O)O	24
88	Cc1ccccc1NC(=O)C(=O)c1cn(C)c2ccccc12	13
89	Cc1cc(C(=O)NC(C)c2ccccc2)c2cc(F)ccc2n1 (centres undefined)	3
90	CCN(CC)c1ccc(CNc2nc3ccccc3n2C(C)C)cc1	21

Part of the list above in another layout.
77: COC(=O)c1c(NC(=O)COC(=O)CCc2ccc(S(=O)(=O)N3CCOCC3)cc2)sc2c1CCC2
  Calb biofilm kill = 20

74: Cc1nn(C(=O)CNS(=O)(=O)c2ccccc2)c(C)c1Sc1ccc(Cl)cc1
  Calb biofilm kill = 12

69: Cc1c(NC(=O)COC(=O)C23CC4CC(CC(O)(C4)C2)C3)c(=O)n(-c2ccccc2)n1C
  Calb biofilm kill = 3

64: CC1CC(CCC(=O)NC(=S)Nc2ccc(Cl)cn2)C(=O)O1 (centres undefined)
  Calb biofilm kill = 2

(listing goes on)
No.	molecule	Calb biofilm kill
91	CCCc1nc2sc3c(c2c(=O)[nH]1)CCCC3	-1
92	CC(C)NC(=S)N/N=C/c1ccccc1[N+](=O)[O-]	13
93	CCOC(=O)c1nc(C)nc(Sc2n[nH]c(-c3cc(C(F)(F)F)cc(C(F)(F)F)c3)n2)c1C	21
94	O=C(Nc1c2c(nn1-c1ccccc1)CSC2)c1ccc(N2C(=O)CCC2=O)cc1	19
95	Cc1ccc(SCC(=O)N2N=CCC2c2ccccc2)cc1 (centres undefined)	19
96	CC1=C(C(=O)Nc2ccc(C)cc2C)C(c2ccc(Cl)cc2)n2nc(C(=O)OC(C)C)nc2N1 (centres undefined)	11
97	Cc1[nH]nc2c1C(c1cccnc1)N(c1ccc(Br)cc1)C2=O (centres undefined)	15
98	Cn1cc(/C=C2\SC(=S)N(NC(=O)c3ccccc3Cl)C2=O)c2ccccc21	6
99	COc1cc(/C=N/NC(N)=O)ccc1OCC(=O)N1C(C)CCCC1C (centres undefined)	1
100	COc1ccccc1/C=C/C=N/n1c(-c2ccco2)n[nH]c1=S	17
101	CC(C)(C)c1ccc(-c2nc(C#N)c(NCCCn3ccnc3)o2)cc1	10
102	Cc1ccc(C)c(-n2cc(CNCCc3cnccn3)c(-c3ccccc3)n2)c1	5
103	CCOc1cccc(CNCc2ccc(C(=O)O)cc2)c1	-18
104	COc1ccccc1-c1ccc(=O)n(CC(=O)NCc2cccs2)n1	15
105	CCn1cc([N+](=O)[O-])c(C(=O)N2CCN(C(=O)c3ccco3)CC2)n1	12
106	Cc1cc2nc(-c3ccc(SCc4ccccn4)nc3)[nH]c2cc1C	-2
107	CNC(=S)N(CCc1c(C)[nH]c2ccc(C)cc12)Cc1cccs1	19
108	O=C1CC(C(=O)Nc2cc(Cl)ccc2Cl)n2ncnc2N1 (centres undefined)	14
109	COC(=O)c1cccc([N+](=O)[O-])c1CN1CCCC(C(N)=O)C1 (centres undefined)	14
110	O=C(NNC(=O)c1ccc([N+](=O)[O-])cc1Cl)c1ccncc1	15
111	CC(=O)Nc1ccc(NC(=O)COC(=O)C2c3ccccc3Oc3ccccc32)cc1	-12
112	O=C(NN1C(=O)C2C3c4ccccc4C(c4ccccc43)C2C1=O)c1ccccc1 (centres undefined)	21
113	CC(C)NC(=O)N1CCCN(c2nc3ccc(Cl)cc3s2)CC1	9
114	CCn1c(COc2ccccc2C)nc2ccccc21	14
115	O=C(CSc1nnc(NC(=O)c2ccc(S(=O)(=O)N3CCOCC3)cc2)s1)Nc1ccccc1C(F)(F)F	6
116	Cc1nn(-c2ccccc2)c(N2CCCC2)c1/C=N/NC(=S)Nc1ccccc1C(F)(F)F	12
117	O=C(c1ccccc1-n1cccn1)N1CCc2c([nH]c3ccccc23)C1c1ccccn1 (centres undefined)	11
118	COc1ccc(/C=C(/C#N)C(=O)Nc2cccnc2)cc1OC	14
119	CC(=O)Nc1ccc(NC(=O)CSc2nnc(COc3ccccc3C)n2CC2CCCO2)cc1 (centres undefined)	12
120	Cc1nn(-c2ccc([N+](=O)[O-])cc2)c2c1C(c1ccc(OC(F)F)cc1)N1C(=N2)C(=O)Nc2ccccc21 (centres undefined)	26
121	O=C(Nn1c(-c2ccc(Br)cc2)nc2ccccc2c1=O)c1ccncc1	14
122	Cc1cc(Cl)ccc1OCC(=O)OCC(=O)Nc1ccc(F)c([N+](=O)[O-])c1	-1
123	CCOc1cc(NC(=S)NCCc2ccccc2)c(OCC)cc1NC(C)=O	5
124	COc1cccc(CN2CCN(C3CCN(c4ccccc4F)CC3)CC2CCO)c1 (centres undefined)	23
125	O=[N+]([O-])c1cc(S(=O)(=O)N2CCCC2)ccc1N/N=C/c1cccnc1	6
126	S=C(c1ccc(-c2ccc(Cl)cc2Cl)o1)N1CCCC1	-1
127	Cc1cc(Cl)ccc1OCCCC(=O)NCc1ccccn1	13
128	COc1ccc(CCNC(=O)COC(=O)Cn2cnc3ccccc32)cc1OC	2

Sorted by SMILES length (lowest first): 4 of the compounds above.
No.	molecule	Calb biofilm kill
23	CCCS(=O)(=O)C/C(N)=N/OC(=O)c1ccc(Cl)cc1	16
64	CC1CC(CCC(=O)NC(=S)Nc2ccc(Cl)cn2)C(=O)O1 (centres undefined)	2
49	O=C(Cc1c[nH]c2ccccc12)NC1(C(=O)NC2CCCC2)CCCCC1	8
5	O=C(NNS(=O)(=O)c1ccccc1F)c1cccc(S(=O)(=O)N2CCOCC2)c1	2

Some of the compounds tested; the hit share may differ from the screen's.
